# rRNA inh HTS: selective bacterial rRNA inhibition in E. coli. E. coli WT GFP vs humanized-ribosome RFP mutants, fluorescence, 24 h; hits give low values; DMSO median 0, no signal -100. hit rate 1.6% among 350,000. GFP signal change (wild-type ribosome), % (no concentration beside the values);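 active = significant combined selectivity score with lowered wild-type GFP, culture density cut under 30%, mutant RFP and density less affected; inactive = any of these conditions unmet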; also: one replicate is shown; some compounds called inactive have numbers as strong as hits
# AF4-AF9 inh: blocks AF4 peptide binding to human AF9 | P42568 | AlphaScreen, biotin-AF4 peptide binding to FLAG-AF9 | inhibition, % at 10 µM | hit rate 0.47% among 350,000;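 active = every replicate reaching a set inhibition limit, whatever the replicate mean, cut at about 25% in these data; inconclusive = mean inhibition reaches that limit but some replicates miss it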;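 also: 0% = plate neutral control median and 100% = total signal loss; the record names both 10 and 1 µM as test concentration; the first replicate is given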
# Target sequence (P42568 whole entry, looked up): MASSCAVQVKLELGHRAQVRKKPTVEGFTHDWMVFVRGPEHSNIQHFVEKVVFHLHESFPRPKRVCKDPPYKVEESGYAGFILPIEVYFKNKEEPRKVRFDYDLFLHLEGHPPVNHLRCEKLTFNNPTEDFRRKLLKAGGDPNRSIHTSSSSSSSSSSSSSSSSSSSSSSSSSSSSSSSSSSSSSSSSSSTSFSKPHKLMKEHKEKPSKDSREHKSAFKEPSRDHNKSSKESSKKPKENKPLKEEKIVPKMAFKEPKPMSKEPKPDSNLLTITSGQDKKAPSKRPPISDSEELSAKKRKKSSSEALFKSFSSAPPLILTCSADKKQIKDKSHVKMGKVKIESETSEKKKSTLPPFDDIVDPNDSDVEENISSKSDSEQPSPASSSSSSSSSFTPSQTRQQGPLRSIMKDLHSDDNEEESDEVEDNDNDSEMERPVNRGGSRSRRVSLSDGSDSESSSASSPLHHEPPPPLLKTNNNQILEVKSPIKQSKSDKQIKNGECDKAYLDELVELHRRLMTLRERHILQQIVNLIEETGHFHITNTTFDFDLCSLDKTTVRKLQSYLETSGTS
# rRNA inh HTS OD600: second read-out of rRNA inh HTS, no call of its own (marks repeat the call); OD600 change, %; measured here: OD600 growth;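 optical density of the mix in the first replicate; 0 = DMSO median and -100 = no signal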
# rRNA inh HTS RFP: second read-out of rRNA inh HTS, no call of its own (marks repeat the call); RFP signal change, %; measured here: RFP humanized mutant strains;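 first replicate; 0 = DMSO median and -100 = no signal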
# Starred values were filed as active, the others as inactive; ? = inconclusive. These rows are one share of the data, so the mix of outcomes need not match the whole.
SMILES,rRNA inh HTS,rRNA inh HTS OD600,rRNA inh HTS RFP,AF4-AF9 inh
COc1ccc(S(=O)(=O)N(C)C[C@@H]2Oc3ccc(NC(=O)CCCCCC(=O)Nc4ccccc4N)cc3CC(=O)N([C@@H](C)CO)C[C@H]2C)cc1,0,5,-4.5,-1.3
Cc1cc(C)c2c(CN3CCCC3)cc(=O)oc2c1,0,-2,-3.1,-0.2
Cc1ccc(C(=O)OCC(=O)Nc2cc(Cl)ccc2C#N)o1,12,14,-0.6,1.5
COc1cccc(-c2ccc3c(c2)O[C@@H](CN(C)C(=O)C2CCCCC2)[C@@H](C)CN([C@H](C)CO)S3(=O)=O)c1,-3,-9,4.6,4.2
COc1ccccc1-c1ccc2n(c1=O)C[C@@H]1[C@@H](CO)[C@H](C(=O)N(C)C)[C@H]2N1C(=O)c1cccnc1,1,2,-1.1,1.4
COc1ccc(CC(=O)Nc2cccc(S(=O)(=O)N3CCCCC3)c2)cc1,6,-28,-0.4,?
C[C@@H]1CN([C@H](C)CO)C(=O)Cc2cc(NC(=O)Nc3ccc(F)cc3)ccc2O[C@H]1CN(C)CC1CCCCC1,3,-19,7.9,0.8
O=S(=O)(c1ccccc1)N1CCCCN2[C@@H](CO)[C@H](c3ccc(-c4cncnc4)cc3)[C@@H]2C1,4,20,-1.7,-3.1
C[C@@H]1CN([C@@H](C)CO)C(=O)c2cc(NS(C)(=O)=O)ccc2O[C@@H]1CN(C)C(=O)Nc1ccc(F)cc1,1,6,-1.6,-0.5
O=C(Nc1cccc(Cl)c1)N1C[C@H]2[C@@H](c3ccccc31)[C@H](CO)N2Cc1cccnc1,-33,-47,-1.4,2.9
O=C(NCC[C@H]1CC[C@@H](NC(=O)C2CCOCC2)[C@H](CO)O1)Nc1ccc(Cl)cc1,-15,-6,1.3,-2.6
CN1CCN(C(=O)C[C@@H]2CC[C@H]3[C@@H](COC[C@@H](O)CN3C(=O)Cc3ccccc3)O2)CC1,2,12,-4.0,2.6
CC(C)CC#Cc1ccc2c(c1)O[C@H](CN(C)Cc1cccnc1)[C@H](C)CN([C@@H](C)CO)S2(=O)=O,-27,-25,29,5.3
C[C@H](CO)N1C[C@H](C)[C@H](CN(C)C(=O)Nc2ccccc2)Oc2ccc(NC(=O)CCN3CCOCC3)cc2CC1=O,7,13,-0.2,4.8
C[C@@H]1CN([C@H](C)CO)C(=O)c2cc(NS(=O)(=O)c3cccs3)ccc2O[C@H]1CN(C)Cc1ccncc1,-2,3,-3.9,-1.5
C[C@@H]1CN([C@@H](C)CO)C(=O)c2cc(NC(=O)C3CC3)ccc2O[C@@H]1CN(C)C(=O)Nc1ccccc1,1,5,0.3,-2.0
Cc1ccc(S(=O)(=O)N(C)C[C@@H]2Oc3ccc(NS(=O)(=O)c4ccc(Cl)cc4)cc3C(=O)N([C@@H](C)CO)C[C@@H]2C)cc1,-1,-4,2.5,-1.5
C[C@@H](NC(=O)N(C)C[C@@H]1OCc2ccccc2-c2ccccc2C(=O)N([C@@H](C)CO)C[C@@H]1C)c1ccccc1,-4,-6,0.4,-2.0
CCC(=O)N(C)C[C@H]1Oc2ncc(C#Cc3ccccc3OC)cc2C(=O)N([C@@H](C)CO)C[C@@H]1C,6,5,2.1,-0.6
Cc1ccc(S(=O)(=O)Nc2ccc3c(c2)C(=O)N([C@@H](C)CO)C[C@@H](C)[C@@H](CN(C)C(=O)Nc2ccccc2)O3)cc1,0,3,2.6,-0.1
O=C([C@H]1[C@H](CO)[C@H]2Cn3c(ccc(-c4ccccc4F)c3=O)[C@H]2N1CC1CC1)N1CCCCC1,-2,-2,-4.0,-0.3
Cc1ccc(-c2cnc3c(c2)C(=O)N([C@H](C)CO)C[C@H](C)[C@@H](CN(C)C)O3)cc1,0,12,-4.7,-1.4
Cc1noc(C)c1NC(=O)Nc1ccc2c(c1)C(=O)N([C@@H](C)CO)C[C@@H](C)[C@H](CN(C)Cc1ccncc1)O2,3,9,1.2,-2.9
CCCNC(=O)N(C)C[C@H]1Oc2ncc(C#CC3CCCCC3)cc2C(=O)N([C@H](C)CO)C[C@@H]1C,0,7,0.6,0.6
CNC[C@H]1Oc2c(NC(=O)Nc3ccc4c(c3)OCO4)cccc2C(=O)N([C@H](C)CO)C[C@@H]1C,0,12,5.6,1.9
CC(C)C#Cc1ccc2c(c1)O[C@@H](CN(C)C(=O)c1cccc(F)c1)[C@H](C)CN([C@@H](C)CO)S2(=O)=O,-2,-21,2.2,-6.7
Cc1cccc(C)c1-n1nnnc1-c1nc2ccccc2[nH]c1=O,3,4,-2.8,-1.3
O=C(NC1CCC1)[C@H]1[C@H](CO)[C@H]2Cn3c(ccc(-c4ccncc4)c3=O)[C@@H]1N2Cc1cocn1,4,10,1.3,-1.1
O=C(NCC[C@@H]1CC[C@@H](NS(=O)(=O)c2ccc(F)cc2)[C@@H](CO)O1)c1ccc2c(c1)OCO2,-4,4,-1.3,-0.5
COc1ccccc1CN(C)C[C@H]1OCc2ccccc2-c2c(n(C)c3ccccc23)C(=O)N([C@H](C)CO)C[C@H]1C,2,-12,2.3,7.5
O=C(C[C@@H]1C[C@@H]2c3cc(NC(=O)c4ccc5c(c4)OCO5)ccc3O[C@@H]2[C@H](CO)O1)NCCc1ccccc1,-4,5,2.1,-13
CC(C)NC(=O)Nc1ccc2c(c1)CC(=O)N([C@H](C)CO)C[C@H](C)[C@H](CN(C)Cc1ccc(-c3ccccc3)cc1)O2,2,-25,1.1,2.9
CC(C)CC#Cc1cnc2c(c1)C(=O)N([C@H](C)CO)C[C@H](C)[C@@H](CN(C)CC1CCOCC1)O2,3,6,-2.2,0.9
O=c1c(-c2cc3ccccc3[nH]2)nc2ccccc2n1C(CCc1ccccc1)c1nc2ccccc2[nH]1 (configuration not stated),31,27,5.2,-30
CCC(=O)N(C)C[C@@H]1[C@H](c2ccc(-c3ccccc3F)cc2)[C@H](CO)N1C(C)=O,-1,12,1.6,0.1

# Copied from above, 15 compounds:
SMILES,rRNA inh HTS,rRNA inh HTS OD600,rRNA inh HTS RFP,AF4-AF9 inh
C[C@@H](NC(=O)N(C)C[C@@H]1OCc2ccccc2-c2ccccc2C(=O)N([C@@H](C)CO)C[C@@H]1C)c1ccccc1,-4,-6,0.4,-2.0
CCC(=O)N(C)C[C@H]1Oc2ncc(C#Cc3ccccc3OC)cc2C(=O)N([C@@H](C)CO)C[C@@H]1C,6,5,2.1,-0.6
Cc1ccc(S(=O)(=O)Nc2ccc3c(c2)C(=O)N([C@@H](C)CO)C[C@@H](C)[C@@H](CN(C)C(=O)Nc2ccccc2)O3)cc1,0,3,2.6,-0.1
O=C([C@H]1[C@H](CO)[C@H]2Cn3c(ccc(-c4ccccc4F)c3=O)[C@H]2N1CC1CC1)N1CCCCC1,-2,-2,-4.0,-0.3
Cc1ccc(-c2cnc3c(c2)C(=O)N([C@H](C)CO)C[C@H](C)[C@@H](CN(C)C)O3)cc1,0,12,-4.7,-1.4
Cc1noc(C)c1NC(=O)Nc1ccc2c(c1)C(=O)N([C@@H](C)CO)C[C@@H](C)[C@H](CN(C)Cc1ccncc1)O2,3,9,1.2,-2.9
CCCNC(=O)N(C)C[C@H]1Oc2ncc(C#CC3CCCCC3)cc2C(=O)N([C@H](C)CO)C[C@@H]1C,0,7,0.6,0.6
CNC[C@H]1Oc2c(NC(=O)Nc3ccc4c(c3)OCO4)cccc2C(=O)N([C@H](C)CO)C[C@@H]1C,0,12,5.6,1.9
CC(C)C#Cc1ccc2c(c1)O[C@@H](CN(C)C(=O)c1cccc(F)c1)[C@H](C)CN([C@@H](C)CO)S2(=O)=O,-2,-21,2.2,-6.7
Cc1cccc(C)c1-n1nnnc1-c1nc2ccccc2[nH]c1=O,3,4,-2.8,-1.3
O=C(NC1CCC1)[C@H]1[C@H](CO)[C@H]2Cn3c(ccc(-c4ccncc4)c3=O)[C@@H]1N2Cc1cocn1,4,10,1.3,-1.1
O=C(NCC[C@@H]1CC[C@@H](NS(=O)(=O)c2ccc(F)cc2)[C@@H](CO)O1)c1ccc2c(c1)OCO2,-4,4,-1.3,-0.5
COc1ccccc1CN(C)C[C@H]1OCc2ccccc2-c2c(n(C)c3ccccc23)C(=O)N([C@H](C)CO)C[C@H]1C,2,-12,2.3,7.5
O=C(C[C@@H]1C[C@@H]2c3cc(NC(=O)c4ccc5c(c4)OCO5)ccc3O[C@@H]2[C@H](CO)O1)NCCc1ccccc1,-4,5,2.1,-13
CC(C)NC(=O)Nc1ccc2c(c1)CC(=O)N([C@H](C)CO)C[C@H](C)[C@H](CN(C)Cc1ccc(-c3ccccc3)cc1)O2,2,-25,1.1,2.9

# Bioassay records (PubChem)
